# Arbovirus anti = antivirals against arbovirus infection, primary screen, cell-based, full library, 10K replicate subset; inhibition, % at 10 µM; 200,000 compounds, 0.37% hits; arbovirus infection cell-based antiviral screen;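 active = inhibition from about 30%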;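 also: bluetongue infection of BSR cells; cell survival read as ATP light after 72 h; 0% = infected wells without compound and 100% = uninfected wells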
# YopH PTP inh = YopH tyrosine phosphatase inhibitors, primary screen, biochemical, fluorescence Ex485/Em525; 140,000 compounds, 0.16% hits; YopH tyrosine phosphatase [Yersinia enterocolitica]; inhibition, %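 (about 10 µM by stock and volumes)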;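 active = inhibition of 50% or more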;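 also: controls were vehicle for no effect and minimum signal wells for full effect; inactives centre near -20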
# RecA splice inh = Mtb RecA intein splicing inhibitors, primary screen, biochemical, fluorescence, HTS; Protein RecA (Mycobacterium tuberculosis (strain ATCC 25618 / H37Rv)), P9WHJ3; cell-free RecA intein splicing; inhibition, %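 (about 9 µM by stock and volumes)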; 290,000 compounds, 0.75% hits; in the data active = inhibition above about 30%;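 also: 0% = vehicle wells and 100% = reference inhibitor control wells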
# Target sequence (P9WHJ3 whole entry, looked up, canonical isoform): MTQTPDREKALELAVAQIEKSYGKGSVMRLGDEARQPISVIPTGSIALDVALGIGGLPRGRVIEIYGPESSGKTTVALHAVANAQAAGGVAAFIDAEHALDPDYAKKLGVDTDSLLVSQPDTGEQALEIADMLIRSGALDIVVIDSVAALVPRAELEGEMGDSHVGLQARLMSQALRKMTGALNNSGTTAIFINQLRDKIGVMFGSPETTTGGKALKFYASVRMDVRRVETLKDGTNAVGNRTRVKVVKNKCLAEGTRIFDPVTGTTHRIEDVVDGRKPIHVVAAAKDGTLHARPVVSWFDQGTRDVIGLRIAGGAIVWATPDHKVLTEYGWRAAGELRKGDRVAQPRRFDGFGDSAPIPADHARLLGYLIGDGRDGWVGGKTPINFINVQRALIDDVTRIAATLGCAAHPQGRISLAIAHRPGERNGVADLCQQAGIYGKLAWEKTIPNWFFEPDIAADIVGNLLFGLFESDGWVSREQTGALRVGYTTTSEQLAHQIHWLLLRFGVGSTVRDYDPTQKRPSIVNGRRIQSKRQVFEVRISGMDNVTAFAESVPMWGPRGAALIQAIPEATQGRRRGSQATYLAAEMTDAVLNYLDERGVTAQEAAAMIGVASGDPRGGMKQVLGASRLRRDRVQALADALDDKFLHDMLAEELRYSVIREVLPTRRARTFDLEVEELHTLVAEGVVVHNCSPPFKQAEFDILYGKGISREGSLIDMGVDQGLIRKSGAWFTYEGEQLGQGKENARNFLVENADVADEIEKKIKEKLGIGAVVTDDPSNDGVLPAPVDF
# Mtb bLac sens = beta-lactam sensitization of Mtb H37Rv, H37Rv | M. tuberculosis H37Rv growth with meropenem, percent inhibition; hits of this screen are not shown here | inhibition, % at 25 µM | 330,000 compounds, 0.27% hits;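 active = about 74% or more and at least 40 points above the plate without the antibiotic, then above 30% in a dose series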;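 also: growth measured after seven days incubation then overnight dye step; 0% = bacteria only wells and 100% = bacteria with antibiotic; twin plates without the antibiotic show which effects depend on it; some results filed as inactive read as strong as hits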
# Mtb H37Rv = M. tuberculosis H37Rv growth inhibitors, H37Rv strain (AID 1626) | M. tuberculosis H37Rv growth inhibition; higher % means a stronger effect | inhibition, % at 10 µM; hits with a dose series show IC50 in µM | 220,000 compounds, 0.95% hits;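 active = confirmed in a dose series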;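 also: bacteria incubated seven days before Alamar blue readout; 0% = bacteria only wells and 100% = bacteria with antibiotic wells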
# Arbovirus anti repeat = recorded beside Arbovirus anti, whose call it bears; inhibition, %; measured here: 10K subset replicate screen; many hits read low in the repeat;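 first of two repeat runs on a subset; 0% = infected and 100% = uninfected wells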
# Active calls of the source: *; · = not tested or not shown. These rows are one share of the data. The share of hits here may be higher or lower than overall.
SMILES,Arbovirus anti,YopH PTP inh,RecA splice inh,Mtb bLac sens,Mtb H37Rv,others
CCN(CC)CCN(C(=O)c1ccc(S(=O)(=O)N(C)C2CCCCC2)cc1)c1nc2c(C)cccc2s1,·,·,10,7,·,
CNC(=O)CN1C(=O)c2ccccc2S1(=O)=O,1,·,1.8,3,-7%,Arbovirus anti repeat=-2
Cc1n[nH]c(C)c1CCNCc1ccc(OCC(O)CN2CCCCC2)cc1 (centres undefined),0,·,-1.1,4,-4%,
CCOC(=O)c1[nH]c(C)c(C(=O)N2CCC3(CC2)OCCO3)c1C,8,-40,-2.2,-14,-9%,
CCOC(=O)c1ccc(COc2ccc(C(C)C)cc2)o1,8,·,7.4,3,2%,
O=C(COc1ncnc2ccccc12)Nc1cccc(S(=O)(=O)N2CCOCC2)c1,-6,-10,-6.9,-5,-4%,
Cc1cccc(NC(=O)C(c2cccc([N+](=O)[O-])c2)N2CCCCC2)c1 (centres undefined),-3,-34,3.2,4,-9%,
COc1ccc(C(C)NC(=O)c2ccc([N+](=O)[O-])cc2)cc1OC (centres undefined),0,-23,-0.1,-9,1%,
NNC(=O)Cn1nc(-c2ccccc2)c2ccccc2c1=O,·,·,-0.7,-8,·,
O=C1CCN1C1(C(=O)NC2CCCCC2)CCCC1,3,-20,0.1,-7,-4%,
CCOC(=O)c1ccc(CNC(=O)C2CCCCC2C(=O)OCC(F)(F)F)o1 (centres undefined),2,-41,-1.1,-8,-11%,
COc1cccc(NC(=S)/C(=C(\[O-])c2ccc(C)c([N+](=O)[O-])c2)[n+]2ccccc2)c1,-4,20,37*,3,-4%,

# Grouped by structure: the entries above with four or more nitrogen atoms.
SMILES,Arbovirus anti,YopH PTP inh,RecA splice inh,Mtb bLac sens,Mtb H37Rv,others
CCN(CC)CCN(C(=O)c1ccc(S(=O)(=O)N(C)C2CCCCC2)cc1)c1nc2c(C)cccc2s1,·,·,10,7,·,
Cc1n[nH]c(C)c1CCNCc1ccc(OCC(O)CN2CCCCC2)cc1 (centres undefined),0,·,-1.1,4,-4%,
O=C(COc1ncnc2ccccc12)Nc1cccc(S(=O)(=O)N2CCOCC2)c1,-6,-10,-6.9,-5,-4%,
NNC(=O)Cn1nc(-c2ccccc2)c2ccccc2c1=O,·,·,-0.7,-8,·,

# Next section:
SMILES,Arbovirus anti,YopH PTP inh,RecA splice inh,Mtb bLac sens,Mtb H37Rv,others
O=C(O)c1ccccc1-c1ccccc1C(=O)Nc1cccc(Br)c1,·,·,2.4,3,-12%,
COc1ccc(CCC(=O)N(C)CC(=O)Nc2ccc(Cl)c(C(F)(F)F)c2)cc1,·,·,2.1,-8,·,
CC(C)(C)NS(=O)(=O)c1ccc(OCC(=O)NCc2ccco2)cc1,1,·,6.4,-12,-3%,
CCCCN(CC)C(=O)c1cc2c(=O)[nH]c3ccc(C)cc3c2s1,·,·,-2.1,4,·,
COc1ccc(-n2c(CCc3ccccc3)nnc2SCC(=O)c2ccc(Cl)cc2)cc1,-9,-22,1.2,-2,0%,
Cc1occc1C(=O)Nc1c(F)cc(F)cc1Br,-3,-42,1.7,-6,10%,
O=C(C[n+]1cccc(CO)c1)Nc1nc2ccccc2s1,-1,·,-4.2,-1,5%,
NC(=NCCc1c[nH]c2ccccc12)NS(=O)(=O)c1ccc(F)cc1,17,1,0.7,1,2%,
CCn1c(=O)c([N+](=O)[O-])c(N2CCOCC2)c2ccccc21,-7,11,-4.2,-1,2%,
Cc1c(OC(C)C(=O)NCCCN2CCCC2=O)ccc2c3c(c(=O)oc12)CCCC3 (centres undefined),·,·,-2.4,7,·,
O=C(NNC(=O)c1cc(-c2ccncc2)nc2ccccc12)c1cccc(Cl)c1,·,·,1.1,-10,·,
Cc1ccc(SCC(=O)n2nc(C)cc2C)cc1,6,-13,1.0,0,-5%,

# Four entries drawn at random from the list so far:
SMILES,Arbovirus anti,YopH PTP inh,RecA splice inh,Mtb bLac sens,Mtb H37Rv,others
NC(=NCCc1c[nH]c2ccccc12)NS(=O)(=O)c1ccc(F)cc1,17,1,0.7,1,2%,
O=C(NNC(=O)c1cc(-c2ccncc2)nc2ccccc12)c1cccc(Cl)c1,·,·,1.1,-10,·,
CCn1c(=O)c([N+](=O)[O-])c(N2CCOCC2)c2ccccc21,-7,11,-4.2,-1,2%,
COc1ccc(CCC(=O)N(C)CC(=O)Nc2ccc(Cl)c(C(F)(F)F)c2)cc1,·,·,2.1,-8,·,

# More records follow:
SMILES,Arbovirus anti,YopH PTP inh,RecA splice inh,Mtb bLac sens,Mtb H37Rv,others
O=C1N[C@@H](Cc2ccccc2)C(=O)N2CCC[C@@H]12,·,·,-1.6,-3,·,
O=C(Cc1cccc(F)c1)N1CCCC(CO)(Cc2ccc(F)cc2F)C1 (centres undefined),·,·,-0.2,-1,·,
O=C(COc1ccccc1C(=O)Nc1ccccc1)c1ccc(F)cc1,-13,·,13,0,0%,
COc1cc2c(cc1OC)C(c1ccccc1)=NCC2,6,-20,1.7,-13,-6%,
O=C1[C@@H]2CSCN2C(=O)CN1Cc1cccc(C(F)(F)F)c1,·,·,0.1,3,·,
C=CCOc1ccc(C2=NOC(C(=O)Nc3ccc4c(c3)OCCO4)C2)cc1OC (centres undefined),·,·,-0.4,2,·,
COc1ccc(NC(=O)COc2ccc(N(C)S(=O)(=O)c3ccc(Cl)cc3)cc2)cc1OC,·,·,1.3,-8,·,
O=C(CSc1oc(-c2ccc(F)cc2)nc1S(=O)(=O)c1ccccc1)NCC1CCCO1 (centres undefined),3,19,0.5,-2,-5%,Arbovirus anti repeat=2
O=C(NCCc1csc(-c2cccnc2)n1)c1cccc2ccccc12,-7,-14,-4.7,-9,2%,
O=c1c2ccccc2n2cnnc2n1-c1ccccc1,1,-5,0.1,-7,-6%,
COC(=O)c1sc(NC(=O)c2ccco2)nc1C,-7,-43,-2.4,3,-6%,
Nc1c(Cl)cc([N+](=O)[O-])cc1Cl,·,·,-2.8,0,·,

# By substructure, those above with two or more sulfur atoms.
SMILES,Arbovirus anti,YopH PTP inh,RecA splice inh,Mtb bLac sens,Mtb H37Rv,others
CCN(CC)CCN(C(=O)c1ccc(S(=O)(=O)N(C)C2CCCCC2)cc1)c1nc2c(C)cccc2s1,·,·,10,7,·,
O=C(CSc1oc(-c2ccc(F)cc2)nc1S(=O)(=O)c1ccccc1)NCC1CCCO1 (centres undefined),3,19,0.5,-2,-5%,Arbovirus anti repeat=2

# 6 structures from above, ordered by number of heavy atoms, largest number first:
SMILES,Arbovirus anti,YopH PTP inh,RecA splice inh,Mtb bLac sens,Mtb H37Rv,others
COc1ccc(NC(=O)COc2ccc(N(C)S(=O)(=O)c3ccc(Cl)cc3)cc2)cc1OC,·,·,1.3,-8,·,
C=CCOc1ccc(C2=NOC(C(=O)Nc3ccc4c(c3)OCCO4)C2)cc1OC (centres undefined),·,·,-0.4,2,·,
O=C(NCCc1csc(-c2cccnc2)n1)c1cccc2ccccc12,-7,-14,-4.7,-9,2%,
O=c1c2ccccc2n2cnnc2n1-c1ccccc1,1,-5,0.1,-7,-6%,
COC(=O)c1sc(NC(=O)c2ccco2)nc1C,-7,-43,-2.4,3,-6%,
Nc1c(Cl)cc([N+](=O)[O-])cc1Cl,·,·,-2.8,0,·,

# The list goes on:
SMILES,Arbovirus anti,YopH PTP inh,RecA splice inh,Mtb bLac sens,Mtb H37Rv,others
COC(=O)CCCC1=CC2=CC(=O)C(C)(OC(=O)c3cccs3)C(=O)C2=CN1Cc1ccccc1 (centres undefined),·,·,-0.8,2,1%,
CCCCN1C(=O)c2ccc(C(=O)Nc3ccccc3N3CCOCC3)cc2C1=O,-6,·,12,-7,6%,
c1ccc(C2CC(c3cccs3)=NN2c2ccccc2)cc1 (centres undefined),·,·,-7.1,3,15%,
C=CCNc1nc(Cl)ncc1F,-2,-25,-11,-4,-7%,
COc1ccc(C2=NN(C(=O)CN3CCCCC3)C(c3ccc(C)cc3)C2)cc1 (centres undefined),-4,·,-2.2,-8,7%,
COc1cc(S(=O)(=O)Nc2ccc(Br)cc2)ccc1N,-2,·,-3.5,-4,6%,
CC(C)(C)N(Cc1ccccc1)C(=O)CSc1nnc(CNc2ccc(F)cc2)o1,-10,-19,7.2,-7,4%,
COC(=O)c1sc(NC(=O)Cc2cccs2)nc1C,-27,-21,0.7,-4,-7%,
Cc1ccc(-n2c(Cc3cccs3)nnc2SCC(=O)OC(C)C)cc1,-3,-43,·,0,-4%,
S=C(c1ccc(Cl)cc1)N1CCOCC1,2,-46,0.0,·,-6%,
CCOC(=O)N1CCC2(CC1)C(C#N)=C(N)OC1=C2C(=O)CC(C)C1 (centres undefined),2,-22,3.0,-11,-7%,
COC(=O)c1sccc1NC(=O)CSc1ccccc1N,-2,·,-0.1,-1,4%,
CCOc1ccc(C(=O)NCC(=O)OCc2c(C)noc2C)cc1OCC,6,·,-1.5,-5,6%,
CCOP(=O)(OCC)C(NC(=O)Nc1ccccc1)C(N)=O (centres undefined),-8,-3,-0.5,-2,-1%,
COc1ccc(CCNC(=O)c2c(C)nc3ccccn23)cc1OC,7,·,0.0,-5,2%,
CC1CN(Cc2c(O)ccc3c2oc(=O)c2ccccc23)CC(C)O1 (centres undefined),·,·,-7.2,-6,4%,
CCNC(=O)N1CCCC(C(=O)c2ccc(OC)c(OC)c2)C1 (centres undefined),-1,·,3.7,-5,-6%,
Nc1ccc(C2(c3ccc(N)cc3)C(=O)Nc3ccccc32)cc1,2,-16,2.9,2,-1%,
Cc1cc(C)c(NC(=S)N(Cc2cccnc2)Cc2ccco2)c(C)c1,2,-25,3.5,1,-4%,
O=C(CSc1nnc(-c2ccccc2Br)o1)Nc1nncs1,6,·,3.7,-9,-3%,
C=C(C)C(=O)Nc1cccc(C2=NOC3(C2)C[C@@H](C(N)=O)N(C(=O)[C@H]2CCC(=O)N2)C3)c1 (some centres undefined),·,·,1.0,1,1%,
O=S(=O)(Nc1cccnc1)c1ccc(C2CCCCC2)cc1,0,-61,-1.5,0,-6%,
COc1ccc(-c2csc(NC(=O)CSc3n[nH]c(N)n3)n2)cc1,-3,·,-2.5,-1,1%,
O=c1c2c([nH]c3ccccc13)CCCCC2,·,·,-1.8,-6,-6%,
Oc1ccc(/C=N/NP(=S)(c2ccccc2)c2ccccc2)cc1,-15,-5,4.8,6,-20%,
CC(=O)Nc1ccc(C(=O)NNC(=O)CCCCC(=O)NNC(=O)c2ccc(NC(C)=O)cc2)cc1,·,·,-3.1,2,·,
COc1cccc(N=Nc2c(N)[nH]n3c(=O)cc(-c4ccccc4)nc23)c1,-31,-11,1.7,83,70%,
CC1CN(C(=O)CSc2nc(-c3ccccc3)cs2)CC(C)O1 (centres undefined),4,-5,0.3,-18,4%,
C=CCn1c(CCNC(=O)c2cccs2)nnc1SCC(=O)c1ccc(Cl)cc1,-8,-9,1.2,-9,3%,
CCC(C)n1nccc1NC(=O)C(C)OC(=O)c1cc2ccccc2[nH]1 (centres undefined),6,-23,3.0,-4,-3%,
C=C(C)CNC(=S)N/N=C/c1ccccc1OCC(=O)O,-4,·,-1.4,10,-1%,
CC(=O)N1CCN(c2cc3c(cc2F)c(=O)c(C(=O)O)cn3C2CC2)CC1,3,·,1.0,100,0.95µM*,

# Bioassay records from PubChem BioAssay.
